Assay outcomes as filed in PubChem.
Rango dissoc inh – inhibition of RanGTP-driven Rango-importin beta dissociation; O95149+P62826; Biochemical FRET Rango-importin beta, RanGTP-induced dissociation; Potency, µM (top dose mostly 46.1 µM), for inactives: at the highest dose activity change, negative = inhibition; 0.071% of 340,000 active; active means falling FRET ratio curve, often poorly fitted, with flat reads before Ran was added; inconclusive means other falling curves, or compound fluorescence or quenching; inactive means flat or rising ratio curve;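 further: potency means the concentration at half of the fitted maximal effect; % of control where 0% means no effect; nearly all actives have a fitted effect of over 45% in size; -100% = wells without RanGTP and RCC1; the record marks most hits as doubtful in a second field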
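Compounds sat 5 min at room temperature with 0.1 uM Rango biosensor plus 0.25 uM importin beta, then FRET pre-read. RanGTP-RCC1 (0.6 uM Ran, 2mM GTP, 0.2 uM RCC1) added for 45 min, and the CFP/YFP post-read measured blocked complex dissociation.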
GLA inh pH 4.5 – alpha-galactosidase A (human) inhibition, pH 4.5. purified enzyme, 4-MU-alpha-Gal fluorescence, pH 4.5. activity change, negative = inhibition, % at 105 µM. 230,000 tested, under 10 active. AID 1467; inconclusive = small, poorly fitted or top-dose-only inhibition, or a rising curve; inactive = flat fitted curve, though single readings scatter; no compound was filed as active;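 further: 0% = full activity with enzyme and -100% = basal without enzyme; dose as in the result columns while the protocol names 77 µM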
Rango complex inh – Rango-importin beta binding inhibition | Rango CFP/YFP FRET sensor + importin beta, 45 min | Potency, µM (doses to about 92.2 µM), without a hit: at the highest dose inhibition of complex formation | 0.031% of 340,000 active; active = rising FRET ratio curve, often small or poorly fitted; inconclusive = mostly compound fluorescence or quenching in the first reads; inactive = flat curves in all reads;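 further: potency means the concentration at half of the fitted maximal effect; 0% = DMSO wells and 100% = buffer wells lacking importin beta; nearly all actives have a fitted effect of over 15% in size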
Target sequence (Q14974 whole entry, looked up): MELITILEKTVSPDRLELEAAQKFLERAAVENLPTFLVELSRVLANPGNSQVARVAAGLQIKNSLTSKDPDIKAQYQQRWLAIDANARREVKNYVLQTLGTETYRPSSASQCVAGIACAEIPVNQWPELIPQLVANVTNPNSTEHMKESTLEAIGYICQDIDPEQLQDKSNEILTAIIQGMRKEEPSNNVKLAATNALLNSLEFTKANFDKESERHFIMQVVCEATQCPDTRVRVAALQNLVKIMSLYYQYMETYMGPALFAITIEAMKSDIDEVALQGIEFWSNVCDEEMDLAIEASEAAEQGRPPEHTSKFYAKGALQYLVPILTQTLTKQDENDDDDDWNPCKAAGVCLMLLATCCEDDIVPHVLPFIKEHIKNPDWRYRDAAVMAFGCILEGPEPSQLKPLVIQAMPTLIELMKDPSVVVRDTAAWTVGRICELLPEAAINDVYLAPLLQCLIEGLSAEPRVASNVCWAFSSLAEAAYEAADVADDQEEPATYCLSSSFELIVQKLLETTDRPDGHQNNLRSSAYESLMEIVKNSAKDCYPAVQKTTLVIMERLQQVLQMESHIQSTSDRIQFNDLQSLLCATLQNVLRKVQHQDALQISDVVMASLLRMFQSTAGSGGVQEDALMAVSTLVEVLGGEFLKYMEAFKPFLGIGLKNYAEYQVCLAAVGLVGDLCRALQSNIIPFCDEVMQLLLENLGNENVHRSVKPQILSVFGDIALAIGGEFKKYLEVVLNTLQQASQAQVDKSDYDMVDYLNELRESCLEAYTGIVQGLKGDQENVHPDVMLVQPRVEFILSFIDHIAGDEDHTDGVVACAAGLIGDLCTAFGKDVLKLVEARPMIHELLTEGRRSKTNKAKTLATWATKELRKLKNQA
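Inhibition scored from the CFP 486 nm/YFP 530 nm FRET ratio 45 min after adding 0.125 microM importin beta to 50 nM Rango biosensor preincubated 5 min with compound (room temperature, PBS with DTT, Tween-20, BSA). No-importin wells as positive control.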
miR-21 FLuc – raises the signal of a miR-21 reporter | AID 2288 | HeLa miR-21 FLuc reporter, luciferase, 48 h | 340,000 tested, under 10 active | Potency, µM (top dose mostly 38.3 µM), inactives show at the highest dose reporter change, positive = more light; active = well fitted rising curve with a large enough effect; inconclusive = small, poorly fitted or top-dose-only effect; inactive = no such curve, though single readings can be large or run the other way;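 further: % of control where 0% means no effect; miR-21 action dims this reporter so a rising signal means less miR-21 action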
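Using DMEM plus 10% FBS, HeLa miR-21-FLuc cells are incubated with test compounds (final up to about 40uM) for 48 hours; firefly luciferase signal is then imaged following reagent-mediated lysis.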
* hit, by the source's call.

Results for O=C(Nc1ccc(Oc2cccc3ccccc23)cc1)c1ccco1 ?
Rango dissoc inh: inconclusive; GLA inh pH 4.5: -10; Rango complex inh: 0.4%; miR-21 FLuc: 8%

How did COc1ccc(Nc2ccc(N3C(=O)CCCC3=O)cc2[N+](=O)[O-])c(OC)c1 do in these assays?
Rango dissoc inh: -12%; GLA inh pH 4.5: 0; Rango complex inh: 1.5%; miR-21 FLuc: 11%

Results for Cc1ccccc1C(=O)N1CCc2cc(-c3csc(NC(=O)CN4CCCC4)n3)ccc21 ?
Rango dissoc inh: 2%; Rango complex inh: -3.4%; miR-21 FLuc: 14%

How did Nc1cc(Nc2ccccc2)c2nonc2c1[N+](=O)[O-] do in these assays?
Rango dissoc inh: 0%; Rango complex inh: inconclusive; miR-21 FLuc: -14%

What do the screens show for `CCc1cc(=O)oc2cc(OCC=C(C)C)ccc12`?
Rango dissoc inh: 20%; Rango complex inh: -1.4%; miR-21 FLuc: -40%

How did O=C(O)CC1S/C(=N\N=C2\C(=O)Nc3ccccc32)N(c2ccc(O)cc2)C1=O (stereo not drawn) do in these assays?
Rango dissoc inh: 4%; Rango complex inh: -0.1%; miR-21 FLuc: -3%

What do the screens show for `COc1ccc(C(C(=O)NCC2CCCO2)N(Cc2cccs2)C(=O)c2snc(C(N)=O)c2N)cc1OC` (stereo not drawn)?
Rango dissoc inh: 22%; Rango complex inh: 3.0%; miR-21 FLuc: 5%

How did CCOC(=O)c1cnc(SC)nc1Nc1cccc(F)c1 do in these assays?
Rango dissoc inh: 11%; GLA inh pH 4.5: -2; Rango complex inh: 3.9%; miR-21 FLuc: -2%

Results for CC1Cc2ccccc2N1C(=O)CSc1nnc(CNc2ccccc2)o1 (stereo not drawn) ?
Rango dissoc inh: 0%; GLA inh pH 4.5: -3; Rango complex inh: 1.7%; miR-21 FLuc: -3%

How did O=[N+]([O-])c1cnc(N2CCCCC2)c([N+](=O)[O-])c1 do in these assays?
Rango dissoc inh: 8%; GLA inh pH 4.5: -9; Rango complex inh: 1.5%; miR-21 FLuc: 2%

How did O=C(Nc1cc(=O)c2ccccc2o1)N1CCCCC1 do in these assays?
Rango dissoc inh: 0%; GLA inh pH 4.5: 0; Rango complex inh: 0.4%; miR-21 FLuc: -4%

How did CC1CN(C(=O)N(C)C)CCN1C(=O)N(C)C (stereo not drawn) do in these assays?
Rango dissoc inh: -4%; GLA inh pH 4.5: 4; Rango complex inh: -0.2%; miR-21 FLuc: -1%

Ordered by SMILES length (falling): part of the list above.
How did O=C(O)CC1S/C(=N\N=C2\C(=O)Nc3ccccc32)N(c2ccc(O)cc2)C1=O (stereo not drawn) do in these assays?
Rango dissoc inh: 4%; Rango complex inh: -0.1%; miR-21 FLuc: -3%

How did COc1ccc(Nc2ccc(N3C(=O)CCCC3=O)cc2[N+](=O)[O-])c(OC)c1 do in these assays?
Rango dissoc inh: -12%; GLA inh pH 4.5: 0; Rango complex inh: 1.5%; miR-21 FLuc: 11%

Results for CC1Cc2ccccc2N1C(=O)CSc1nnc(CNc2ccccc2)o1 (stereo not drawn) ?
Rango dissoc inh: 0%; GLA inh pH 4.5: -3; Rango complex inh: 1.7%; miR-21 FLuc: -3%

Results for O=C(Nc1ccc(Oc2cccc3ccccc23)cc1)c1ccco1 ?
Rango dissoc inh: inconclusive; GLA inh pH 4.5: -10; Rango complex inh: 0.4%; miR-21 FLuc: 8%

How did O=C(Nc1cc(=O)c2ccccc2o1)N1CCCCC1 do in these assays?
Rango dissoc inh: 0%; GLA inh pH 4.5: 0; Rango complex inh: 0.4%; miR-21 FLuc: -4%

(further entries)
What do the screens show for `O=C(c1ccco1)c1nnn(Cc2ccccc2)c1-c1ccccc1`?
Rango dissoc inh: 6%; GLA inh pH 4.5: 3; Rango complex inh: -1.1%; miR-21 FLuc: -15%

Results for CC(=O)N1CCN(CCN(CC2C(C)C=C(C)CC2C)C(C)=O)CC1 (stereo not drawn) ?
Rango dissoc inh: -3%; GLA inh pH 4.5: -9; Rango complex inh: 3.4%; miR-21 FLuc: -3%

What do the screens show for `COc1ccc(NC(=O)CSc2nnc(Cc3cccn3C)n2-c2ccc(C)cc2)cc1OC`?
Rango dissoc inh: -11%; GLA inh pH 4.5: -2; Rango complex inh: 1.5%; miR-21 FLuc: 3%

How did NS(=O)(=O)c1ccc(CCNC(=O)c2cccc3ccccc23)cc1 do in these assays?
Rango dissoc inh: -2%; Rango complex inh: -1.7%; miR-21 FLuc: -2%

How did Cc1ccc(S(=O)(=O)CC(O)COc2ccccc2C#N)cc1 (stereo not drawn) do in these assays?
Rango dissoc inh: 15%; GLA inh pH 4.5: 5; Rango complex inh: 0.3%; miR-21 FLuc: -4%

How did C/C(=N\NC(=O)c1ccc(Cl)c(S(=O)(=O)Nc2ccccc2Cl)c1)c1ccncc1 do in these assays?
Rango dissoc inh: 3%; GLA inh pH 4.5: -3; Rango complex inh: 10%; miR-21 FLuc: -18%

Results for COc1ccc(-c2nn(-c3ccccc3)cc2C2CC(c3cccs3)=NN2C(=O)CCCC(=O)O)cc1 (stereo not drawn) ?
Rango dissoc inh: -13%; GLA inh pH 4.5: 0; Rango complex inh: 3.6%; miR-21 FLuc: -1%

What do the screens show for `O=C(CSc1cccc(C(F)(F)F)c1)Nc1ccc(Cl)cc1Cl`?
Rango dissoc inh: 20%; GLA inh pH 4.5: -23; Rango complex inh: 7.9%; miR-21 FLuc: -11%

Results for O=C(O)CCCCCNC(=O)CCn1cnc2ccccc2c1=O ?
Rango dissoc inh: 1%; GLA inh pH 4.5: 1; Rango complex inh: 2.1%; miR-21 FLuc: -5%

Results for O=C(C1=C[C@H](c2ccc(Br)cc2)C[C@H](OCCCCO)O1)N1CCOCC1 ?
Rango dissoc inh: 0%; GLA inh pH 4.5: 5; Rango complex inh: -1.1%; miR-21 FLuc: -12%

What do the screens show for `C=C1CC(COc2cc(=O)oc3ccccc23)(c2ccccc2)OC1=O` (stereo not drawn)?
Rango dissoc inh: 19%; Rango complex inh: -1.3%

What do the screens show for `O=C1CCc2cc(S(=O)(=O)N3CCCC3C(=O)N3CCN(c4ccccc4)CC3)ccc2N1` (stereo not drawn)?
Rango dissoc inh: -10%; GLA inh pH 4.5: 4; Rango complex inh: -0.6%; miR-21 FLuc: -9%

How did CC(=O)Nc1nnc(-c2ccc(Cl)s2)o1 do in these assays?
Rango dissoc inh: 10%; GLA inh pH 4.5: -6; Rango complex inh: 1.2%; miR-21 FLuc: -14%

How did CCCOc1cccc(C(=O)Nc2ccccc2C(=O)N2CCN(C)CC2)c1 do in these assays?
Rango dissoc inh: -7%; Rango complex inh: 0.0%; miR-21 FLuc: -14%

How did COC(=O)c1ccccc1OCC(=O)N1CCN(c2ccc(F)cc2)CC1 do in these assays?
Rango dissoc inh: 1%; GLA inh pH 4.5: -3; Rango complex inh: -5.2%; miR-21 FLuc: -8%

What do the screens show for `O=c1cc(-c2ccccc2O)nc(-c2ccccc2)[nH]1`?
Rango dissoc inh: 15%; Rango complex inh: 2.1%

Results for S=C(Cc1cccnc1)N1CCOCC1 ?
Rango dissoc inh: -1%; GLA inh pH 4.5: 3; Rango complex inh: 4.6%; miR-21 FLuc: -5%

Results for COc1cccc(C2C(C(=O)Nc3ccccc3)=C(C)N=c3s/c(=C/c4ccc(OCC(=O)O)cc4)c(=O)n32)c1 (stereo not drawn) ?
Rango dissoc inh: inconclusive; GLA inh pH 4.5: -3; Rango complex inh: inconclusive; miR-21 FLuc: -1%

What do the screens show for `O=C(NCc1ccccn1)C(=O)NCC1OCCCN1S(=O)(=O)c1cc(F)ccc1F` (stereo not drawn)?
Rango dissoc inh: 1%; Rango complex inh: 0.0%; miR-21 FLuc: -5%

Results for O=C(Nc1cccc2ccccc12)N1CCN(Cc2ccc3c(c2)OCO3)CC1 ?
Rango dissoc inh: -3%; GLA inh pH 4.5: 3; Rango complex inh: 0.1%; miR-21 FLuc: -1%

How did CCOc1ccccc1NC(=O)CSc1nnc(-c2ccco2)o1 do in these assays?
Rango dissoc inh: 2%; GLA inh pH 4.5: -6; Rango complex inh: 5.0%; miR-21 FLuc: 0%

Results for Cc1ccc(S(=O)(=O)Nc2cccc3c2O[C@H](CN(C)C(=O)Nc2ccc(C(F)(F)F)cc2)[C@@H](C)CN([C@H](C)CO)C3=O)cc1 ?
Rango dissoc inh: -4%; Rango complex inh: -0.5%

How did Cc1ccc(C(=O)c2cc3c(cc2[N+](=O)[O-])OCCO3)cc1 do in these assays?
Rango dissoc inh: -1%; GLA inh pH 4.5: -13; Rango complex inh: -3.2%; miR-21 FLuc: -19%

Results for COc1cc(C(=O)OCC(=O)Nc2cc(C)on2)ccc1OCc1ccccc1Cl ?
Rango dissoc inh: -3%; GLA inh pH 4.5: 0; Rango complex inh: -1.6%; miR-21 FLuc: -19%

What do the screens show for `CCN1C(=O)[C@H]2[C@@H](c3ccc(-c4ccc(OC)cc4)cc3)N3CCCC[C@@]3(C(=O)OC)[C@H]2C1=O`?
Rango dissoc inh: -8%; Rango complex inh: -0.6%

How did CCN(CC)CCn1c(=S)[nH]c2cc(C(=O)N3CC(C)CC(C)C3)ccc2c1=O (stereo not drawn) do in these assays?
Rango dissoc inh: 1%; Rango complex inh: 2.8%; miR-21 FLuc: 1%

How did CN(Cc1ccc(Cl)cc1)C(=O)CNC(=O)C12CC3CC(CC(C3)C1)C2 do in these assays?
Rango dissoc inh: 0%; Rango complex inh: 2.7%

What do the screens show for `c1cc(CNC2C3CC4CC(C3)CC2C4)ccn1` (stereo not drawn)?
Rango dissoc inh: 1%; GLA inh pH 4.5: -6; Rango complex inh: 4.6%; miR-21 FLuc: 0%

What do the screens show for `CN(C)C(CNC(=O)c1ccc2ccccc2c1)c1ccco1` (stereo not drawn)?
Rango dissoc inh: 5%; GLA inh pH 4.5: -3; Rango complex inh: inconclusive; miR-21 FLuc: -42%

How did O=C(NCc1ccco1)c1cc([N+](=O)[O-])cc([N+](=O)[O-])c1 do in these assays?
Rango dissoc inh: 20%; GLA inh pH 4.5: 6; Rango complex inh: 5.5%; miR-21 FLuc: 0%

What do the screens show for `CCN1C(=O)[C@H]2[C@H]3CN=C(SC)N3[C@@](CC)(C(=O)OC)[C@H]2C1=O`?
Rango dissoc inh: 27%; Rango complex inh: 2.9%

What do the screens show for `CC(c1nnc(SCC(=O)Nc2cccnc2Cl)n1Cc1ccccc1)N(C)C` (stereo not drawn)?
Rango dissoc inh: 1%; GLA inh pH 4.5: 0; Rango complex inh: -0.7%; miR-21 FLuc: -2%

What do the screens show for `Cc1c(S(=O)(=O)NCc2ccccc2)c(=O)n(C)c(=O)n1C`?
Rango dissoc inh: 2%; GLA inh pH 4.5: -1; Rango complex inh: 4.4%; miR-21 FLuc: -7%

What do the screens show for `CC1CCC(N2CCN(c3ccc([N+](=O)[O-])cc3)CC2)CC1` (stereo not drawn)?
Rango dissoc inh: -8%; Rango complex inh: -0.1%; miR-21 FLuc: 6%

Results for CCOc1cc(/C=N/NC(=O)COc2ccccc2C)ccc1OC(=O)c1cccs1 ?
Rango dissoc inh: 0%; GLA inh pH 4.5: -18; Rango complex inh: -0.5%; miR-21 FLuc: 0%

Results for CCOCCCNC(=O)c1cc(-c2cccnc2)nc2ccc(S(=O)(=O)N3CCC(C)CC3)cc12 ?
Rango dissoc inh: -7%; Rango complex inh: -5.7%; miR-21 FLuc: 2%

Results for Cc1ccc(C)n1C(CC(=O)O)c1ccc(C#N)cc1 (stereo not drawn) ?
Rango dissoc inh: -5%; GLA inh pH 4.5: 1; Rango complex inh: 2.7%; miR-21 FLuc: 0%

What do the screens show for `CCN1C(=O)C2(C(C(=O)c3cc4ccccc4o3)=C(O)C(=O)N2CCCN(C)C)c2ccccc21` (stereo not drawn)?
Rango dissoc inh: 4%; GLA inh pH 4.5: -3; Rango complex inh: -1.5%; miR-21 FLuc: 0%

What do the screens show for `COc1ccc(CCN2CNc3c(c(=O)n(C)c(=O)n3C)C2)cc1`?
Rango dissoc inh: -15%; GLA inh pH 4.5: 3; Rango complex inh: -0.8%; miR-21 FLuc: -1%

What do the screens show for `O=C(COC(=O)c1cccc(S(=O)(=O)NCc2ccccc2)c1)c1ccccc1`?
Rango dissoc inh: -10%; GLA inh pH 4.5: -25; Rango complex inh: 0.8%; miR-21 FLuc: 2%

The list is partial; the hit share may differ from the screen's.
